Source: PubChem BioAssay (Southern Research Institute)
Mtb H37Rv: Mycobacterium tuberculosis H37Rv growth inhibition, cell based, confirmatory dose response (AID 1949). inhibition, % at 10 µg/mL; hits with a dose series show IC50 in µg/mL. most inactive calls were filed without a number and no value below 0 was filed. 100,000 tested, 1.6% active;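 active means confirmed in a dose series; inconclusive means about 50% or more but not retested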;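 further: bacteria grown 7 days with compound before Alamar blue readout; 0% = untreated bacteria and 100% = reference antibiotic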
Starred values were filed as active, the others as inactive; i = inactive; ? = inconclusive. Only part of the results is shown; rates above refer to the full screens.

SMILES	Mtb H37Rv
Cc1ccc(NS(=O)(=O)N2CCCCC2)cc1	i
COc1ccc(S(=O)(=O)N2CCN(C(=O)COc3ccc4ccccc4c3)CC2)cc1	i
CCOC(=O)c1oc2c(CN3CCCC3)c(O)c(CC)cc2c(=O)c1-c1nc2ccccc2s1	i
COc1ccccc1N1CCN(C2CCN(Cc3ccccc3F)CC2)CC1	i
COc1ccc(N2CC(C(=O)Nc3cccc(C(C)=O)c3)CC2=O)cc1 (stereo not drawn)	i
Cc1cc(Cl)c(OCCNCCO)c(Br)c1	i
CC(C)OC(=O)C(C)Oc1ccc2c(-c3ccccc3)cc(=O)oc2c1 (stereo not drawn)	1.6µg/mL*
Cc1sc2ncn(Cc3cccc(Cl)c3)c(=O)c2c1C	i
COc1ccccc1N(CC(=O)Nc1ccc(NC(C)=O)cc1)S(=O)(=O)c1ccc(C)cc1	i
O=C(CSc1nc2ccccc2c(=O)n1Cc1ccco1)c1ccc(Br)cc1	i
COc1cc(NC(=S)Nc2ccc(Br)cc2Cl)c(OC)cc1Cl	1%
C=CCOc1cccc(C2C(C(=O)c3ccc(C)o3)=C(O)C(=O)N2CCCn2ccnc2)c1 (stereo not drawn)	i
COc1ccc(OC)c(NC(=O)CSc2nncc3ccccc23)c1	1%
O=C(Nc1ccc2c(c1)C(=O)OC2)c1ncn[nH]1	i
O=C(O)c1ccc(NS(=O)(=O)c2cccs2)cc1	i
CS(=O)(=O)N(Cc1ccc(Cl)cc1)c1ccc(C(=O)Nc2cccnc2)cc1	i
O=C(CSc1ccccc1)Nc1cc(C(=O)O)cc(C(=O)O)c1	i
O=C(NC1CC1)c1ccc2c3c(cccc13)CC2	i
CCOc1ccc(-c2csc(NC(=O)CCc3ccccc3)n2)cc1	3%
COc1ccc(-c2nc(N)n(C(=O)c3ccc(F)cc3)n2)cc1	i

The list goes on, starting with the last 4 of the part before.
SMILES	Mtb H37Rv
O=C(CSc1ccccc1)Nc1cc(C(=O)O)cc(C(=O)O)c1	i
O=C(NC1CC1)c1ccc2c3c(cccc13)CC2	i
CCOc1ccc(-c2csc(NC(=O)CCc3ccccc3)n2)cc1	3%
COc1ccc(-c2nc(N)n(C(=O)c3ccc(F)cc3)n2)cc1	i
CC(Oc1cccc(Cl)c1)C(=O)Nc1nc2ccc([N+](=O)[O-])cc2s1 (stereo not drawn)	25%
CSc1nc2ccc(NC(=O)CSc3nnnn3-c3ccccc3)cc2s1	7%
Cc1ccccc1C(=O)N1CCC(C(=O)Nc2cccc3ccccc23)CC1	i
Cc1c(C(=O)Nc2ccc(Cl)cc2)cnn1-c1ccccc1	i
NS(=O)(=O)c1ccc(S(=O)(=O)NCCc2c[nH]c3ccccc23)cc1	i
Cc1c(NC(=S)NCc2ccc(F)cc2)cccc1[N+](=O)[O-]	i
CCc1ccccc1OCC(=O)Nc1cccc([N+](=O)[O-])c1	6%
CSc1ccc(Cl)c(C(=O)Nc2cccnc2)c1	i
C=CCNCCOc1ccc(C(C)(C)C)cc1C	i
CC(C)NC(=O)c1ccccc1-c1ccccc1	22%
O=S(=O)(Nc1cc(Cl)ccc1Oc1ccccc1)c1ccc2c(c1)OCCO2	i
O=S(=O)(N1CCCCCC1)n1ccnc1	i
COc1ccc(COC(=O)C2=C(C)NC(=O)NC2c2ccc(O)cc2)cc1 (stereo not drawn)	i
O=S(=O)(NC1CCCCC1N1CCOCC1)c1ccc(Cl)cc1 (stereo not drawn)	i
O=C1CC(N2CCN(C3CCc4ccccc4C3)CC2)C(=O)N1c1ccc(Br)cc1 (stereo not drawn)	3%
COc1ccc(S(=O)(=O)Nc2ccccc2C(=O)NCc2ccccc2)cc1Br	i
CNC(=O)c1cc(-c2ccc(C)cc2)nc2ccccc12	i
CCCn1c(CCCNC(=O)c2cccc(C)c2)nc2ccccc21	2%
Cc1ccccc1-n1c(-c2ccncc2)n[nH]c1=S	i
CCn1c(COc2ccccc2)nnc1SCC(=O)Nc1ccccc1F	i

4 structures out of the list, ordered by heavy-atom count, descending.
SMILES	Mtb H37Rv
O=S(=O)(Nc1cc(Cl)ccc1Oc1ccccc1)c1ccc2c(c1)OCCO2	i
CSc1nc2ccc(NC(=O)CSc3nnnn3-c3ccccc3)cc2s1	7%
CC(Oc1cccc(Cl)c1)C(=O)Nc1nc2ccc([N+](=O)[O-])cc2s1 (stereo not drawn)	25%
CC(C)NC(=O)c1ccccc1-c1ccccc1	22%

Further results
SMILES	Mtb H37Rv
CCOc1ccc(NC(=O)CC2C(=O)N(CC)C(=S)N2CCc2ccccc2F)cc1 (stereo not drawn)	i
CCc1c(C=O)[nH]c(C(=O)OCc2ccccc2)c1C	i
COC(=O)Nc1ccc(OC)c(OC)c1	i
CCCc1[nH]nc2c1C(c1cccc(OCC(N)=O)c1)C(C#N)=C(N)O2 (stereo not drawn)	4%
CCc1ccc(OCC(=O)Nc2ccncc2)c(Br)c1	10%
O=C(CC1C(=O)N(c2ccc(F)cc2)C(=S)N1Cc1ccc(N2CCCC2=O)cc1)Nc1ccccc1 (stereo not drawn)	8%
O=C(Nc1ccc2c(c1)CCC2)c1cnccn1	i
CCOC(=O)N1CCN(CC(=O)Nc2cc3c(cc2C(C)=O)OCO3)CC1	i
CC(=O)Nc1ccc(NC(=O)CN(Cc2ccccc2)S(=O)(=O)c2ccc(F)cc2)cc1	6%
Cc1cccc(N(CC(=O)Nc2ccccc2-c2ccccc2)S(C)(=O)=O)c1C	i
C=CCc1ccccc1OCCCNCCCOC	i
Cc1ccc(S(=O)(=O)Nc2ccc(C)cn2)cc1	i
CCCN(CCC)S(=O)(=O)c1ccc(NC(=O)COc2ccc(Cl)cc2)cc1	i
Cc1cc(C)n(C/C=C/Cn2nc(C)cc2C)n1	0%
O=C(NCCCc1ccccc1)c1ccc(Br)o1	i
CN(C)CCCN(CCCN(C)C)Cc1cccnc1	i
COc1ccc(CCC(=O)NNC(=S)NC2CCCC2)cc1	i
COc1ccccc1NC(=O)CSc1nnnn1Cc1ccccc1	i
Cc1cc(C(=O)NCc2ccccc2Br)no1	i
COc1ccc(C(=O)Nc2ccc([N+](=O)[O-])cc2)cc1S(=O)(=O)N1CCOCC1	i

Next section, overlapping the part above by 6 compounds.
SMILES	Mtb H37Rv
O=C(NCCCc1ccccc1)c1ccc(Br)o1	i
CN(C)CCCN(CCCN(C)C)Cc1cccnc1	i
COc1ccc(CCC(=O)NNC(=S)NC2CCCC2)cc1	i
COc1ccccc1NC(=O)CSc1nnnn1Cc1ccccc1	i
Cc1cc(C(=O)NCc2ccccc2Br)no1	i
COc1ccc(C(=O)Nc2ccc([N+](=O)[O-])cc2)cc1S(=O)(=O)N1CCOCC1	i
Cc1nc(-c2cccc(-c3noc(C)n3)c2)no1	i
O=C(CSc1nnc(-c2ccncc2)s1)NNC(=O)c1cccs1	i
O=C(CN(C1CCCCC1)S(=O)(=O)c1ccc(Br)cc1)Nc1c(F)cccc1F	i
Cc1ccc(-n2c(=O)c3c(n4c(SC(C)C)nnc24)-c2ccccc2CC32CCCC2)cc1	15%
O=C(O)c1cccc(NC(=S)NC(=O)c2cccc(F)c2)c1	9%
CCn1c(COc2ccccc2Cl)nnc1SCC(=O)Nc1cc(Cl)cc(Cl)c1	i
COc1ccc(N2CCN(C(=O)CSCc3ccccc3Br)CC2)cc1	3%
O=S(=O)(c1cccc(F)c1)N1CCC(Cc2ccccc2)CC1	4%
O=C(CSCc1ccc([N+](=O)[O-])cc1)N1CCN(c2cccc(Cl)c2)CC1	22%
Cc1occc1C(=O)NCc1ccc(S(N)(=O)=O)cc1	0%
CCOC(=O)c1c(-c2ccc(F)cc2)csc1NC(=O)c1ccccc1[N+](=O)[O-]	i
COc1ccc(-c2nnc(Nc3ccc4c(c3)OCO4)c3ccccc23)cc1	i
C=CCn1c(SCC(=O)Nc2ccc(OC)cc2)nnc1-c1cccnc1	i
COc1cc(CNC2CCCCC2C)c([N+](=O)[O-])cc1OC (stereo not drawn)	i
CN(c1ccc(C(=O)NCCSc2ccc(Cl)cc2)cc1)S(C)(=O)=O	4%
CSc1nnc(COc2ccccc2)n1C	i
CCCCOc1ccc(C(=O)Nc2cccc(C(=O)O)c2)cc1	13%
COc1ccc(C(=O)NC(=S)Nc2cccc3ccccc23)cc1	i
COc1cccc(C2CC(c3ccc(Cl)cc3Cl)Nc3ncnn32)c1 (stereo not drawn)	15%
Cn1c(SC/C=C/c2ccccc2)nnc1-c1cnccn1	i
COc1ccccc1-n1nnnc1SCC(=O)Nc1ccccn1	i
COC(=O)c1cc(C)sc1NC(=S)NCc1ccccc1Br	i
O=C(CSc1nnc2scc(-c3ccccc3)n12)c1ccc2c(c1)OCO2	i
Fc1ccc(CNC(=S)NC2CCN(Cc3ccccc3)CC2)cc1	i
CC(C)(C)c1ccc(OCCCC(=O)O)cc1	i
O=C(CN1C(=O)COc2ccc(Cl)cc21)Nc1cc(C(F)(F)F)ccc1Cl	i
CCCCNC(=O)c1ccccc1NC(=O)c1ccccc1N(C)S(C)(=O)=O	i
Cc1ccc(SCC(=O)Nc2ccc(S(=O)(=O)Nc3cccc(C(F)(F)F)c3)cc2)cc1	i
O=C(NCc1ccc2c(c1)OCO2)c1ccc(Br)s1	i
COCCNC(=S)Nc1c(C)nn(Cc2ccc(Cl)c(Cl)c2)c1C	i
CCCCOc1ccc(CSc2n[nH]c(C)n2)cc1	18%
CC(C)c1ccc(S(=O)(=O)NCc2ccc3c(c2)OCO3)cc1	1%
Cc1ccc2cc(C=O)c(N(C)C)nc2c1	i
O=C(CCC1CCCCC1)Nc1cccc(Br)c1	45%
O=[N+]([O-])c1ccc(N2CCN(S(=O)(=O)c3ccccc3)CC2)cc1N1CCCC1	i
CCOC(=O)c1cnc(SCc2nc(N)nc(Nc3ccc(F)cc3)n2)nc1N	i
C=CCNCCOc1ccc(Cl)cc1Br	i
O=C(CSc1nnc(-c2ccc(Cl)cc2)n1-c1ccccc1)Nc1ccccc1C(F)(F)F	i
Cc1ccc(-c2nn(CCC(=O)NCc3ccccc3)c(=O)c3ccccc23)cc1	i
CC(=O)c1ccc(NC(=O)CSc2nc3cc(C)c(C)cc3[nH]2)cc1	i
O=C(Nc1ccccc1C1CC1)c1ccccc1I	i
O=C(Nc1cccc(C(F)(F)F)c1)N1CCN(c2ccc(F)cc2)CC1	i
CCc1ccc(OCC(=O)Nc2ccc(OC)cc2)c(Br)c1	4%
COC(=O)C12CCC(C)(C(=O)O1)C2(C)C (stereo not drawn)	i
Cc1cc(C(=O)Nc2ccc(Cl)cc2Cl)ccc1[N+](=O)[O-]	i
COC(=O)Cc1ccc(NC(=S)NCc2ccccc2)cc1	i
CC(=O)NC(c1ccc(Cl)cc1)c1c(O)ccc2ccc(O)cc12 (stereo not drawn)	i
CC(C)(C)c1ccc(OCc2ccc(C(=O)O)cc2)cc1	19%
CCc1cc2c(C)cc(=O)oc2cc1OCc1cccc(OC)c1	i
Cc1cc(Br)cc(C)c1NC(=O)c1ccc(-c2ccccc2)cc1	i
CC(=O)C1=C(O)C(=O)N(CCN(C)C)C1c1ccccc1 (stereo not drawn)	i
CCOC(=O)c1ccc(OCCCNCc2ccco2)cc1	i
CC(C)(C)NS(=O)(=O)c1ccc(NC(=O)c2ccc(Br)o2)cc1	i
COC(=O)NNC(=S)Nc1sc(-c2ccccc2)cc1C(=O)OC	i
CCN(CC)S(=O)(=O)c1ccc(OC)c(NS(=O)(=O)Cc2ccccc2)c1	i
CC1=C(C(N)=O)C(c2ccc([N+](=O)[O-])cc2)n2ncnc2N1 (stereo not drawn)	i
C#CCOc1ccc(C2NC(=O)NC(C)=C2C(=O)Nc2ccccc2OC)cc1OCC (stereo not drawn)	i
Cc1cc2oc(=O)c3c(c2c2occ(-c4ccccc4)c12)CCCC3	i
Fc1cccc(NC(=S)Nc2ccccc2F)c1	0%
CC(=O)N(CCCc1ccc(C(C)(C)C)cc1)CCCN(C)C	i

4 compounds picked at random from those above:
SMILES	Mtb H37Rv
CCc1cc2c(C)cc(=O)oc2cc1OCc1cccc(OC)c1	i
COC(=O)C12CCC(C)(C(=O)O1)C2(C)C (stereo not drawn)	i
CCc1ccc(OCC(=O)Nc2ccc(OC)cc2)c(Br)c1	4%
O=C(Nc1ccccc1C1CC1)c1ccccc1I	i

Next part
SMILES	Mtb H37Rv
Cc1ccc(C(=O)Oc2cccc(NC(=O)c3ccccc3)c2)cc1S(=O)(=O)N1CCC(C)CC1	i
Cc1cccc(-c2n[nH]c(=S)n2C2CCCCC2)c1	i
CC1(C)C2CCC1(CS(=O)(=O)N(Cc1ccccc1)Cc1ccccc1)C(=O)C2 (stereo not drawn)	4%
COC(=O)C1=C(C)NC2=C(C(=O)c3ccccc32)C1c1ccc(OCc2ccc([N+](=O)[O-])cc2)c(Cl)c1 (stereo not drawn)	i
CCCC(C)C(=O)N1CCN(c2cccc(Cl)c2)CC1 (stereo not drawn)	4%
O=C(NCCCNC1CCCCC1)C(Cl)Cl	i
O=C1c2oc3ccccc3c(=O)c2C(c2ccc(O)cc2)N1c1nccs1 (stereo not drawn)	i
Cn1nnnc1SCC(=O)NC1CCCC1	i
CCC(SC1=NCCS1)C(=O)Nc1nc2ccccc2s1 (stereo not drawn)	?
c1ccc(CN2CCN(CCCOc3cccc4ccccc34)CC2)cc1	4.7µg/mL*
N#C/C(=C\c1cc2c(cc1Cl)OCO2)S(=O)(=O)c1ccccc1	i
CCn1c(CNC(=O)c2ccc(C)cc2)nnc1SCC(=O)Nc1ccc(C(=O)OC)cc1	i
CCc1c(C)sc(NC(=O)c2cc(OC)c(OC)c(OC)c2)c1C(N)=O	i
CC(CC(=O)Nc1ccc(S(=O)(=O)N2CCOCC2)cc1)c1ccccc1 (stereo not drawn)	1%
Cc1ccc(NC(=O)c2ccc(S(=O)(=O)N3CCCCC3C)cc2)cc1C (stereo not drawn)	i
CC(=O)Nc1ccc2c(c1)n(C)c(=O)n2C	i
COc1ccc(CNC(=O)CSc2nc(-c3ccc(F)cc3)cc(C(F)(F)F)n2)cc1OC	i
S=C(NC1CCCC1)N1CCN(C/C=C/c2ccccc2)CC1	i
O=S(=O)(NCC1CCCO1)c1ccc(F)c(Cl)c1 (stereo not drawn)	i
